# Screening data as filed in PubChem BioAssay.
# Epigenetic derep – Quantitative High-Throughput Screen for Regulators of Epigenetic Control; hit rate 0.2% among 280,000; murine LDR cells, GFP reporter derepression, 30 h; AID 1865, 2009; Potency, µM (top dose mostly 53.9 µM), for inactives: top-dose GFP activation, actives largely listed as activators; note: potency is the fitted concentration of half-maximal effect; % of control where 0% means no effect; nearly all actives have a fitted effect of over 60% in size
#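 Derepression of a silenced CMV-GFP reporter in murine LDR cells is scored by enumerating GFP-positive cells with a laser-scanning microplate cytometer after 30 hours of treatment at 37 C.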
# GLA spleen mod – qHTS Assay for Inhibitors and Activators of Human alpha-Galactosidase From Spleen Homogenate. human spleen homogenate, 4MU-alpha-Gal fluorescence, 40 min. Potency, µM (series often up to 80 µM), inactives show at the top dose activity change, negative = inhibition, most hits filed as inhibitors. hit rate 0.008% among 240,000. Alpha-galactosidase A (Homo sapiens), P06280. AID 2107, 2009;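 note: potency is the fitted concentration of half-maximal effect; 0% = enzyme with vehicle and -100% = no enzyme basal signal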
#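 Fluorogenic readout (Ex 365/Em 440 nm) of 4-methylumbelliferone released from 1 mM 4-MU-alpha-galactoside by spleen homogenate, 40 min at 37C, pH 5.0. Data normalized to no-enzyme and enzyme controls; Hill-equation AC50 from compound titrations.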
# CBFb RUNX1 block – qHTS Assay for Compounds Blocking the Interaction Between CBF-beta and RUNX1 for the Treatment of Acute Myeloid Leukemia. Runt-related transcription factor 1 (Homo sapiens) + Core-binding factor subunit beta …. AlphaScreen CBFb-His/RUNX1-biotin binding, biochemical. Potency, µM (titrated, usually from 59.8 µM), inactives show at the highest dose activity, negative = inhibition, actives largely listed as inhibitors. 230,000 tested, under 10 active. AID 1477, 2009; note: % of control where 0% means no effect
#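 Proteins preincubated together for 20 min at RT before compound addition; 15 min later, nickel and streptavidin beads were added and left 90 min prior to AlphaScreen measurement.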
# NPSR antag – qHTS Assay for Antagonists of the Neuropeptide S Receptor: cAMP Signal Transduction | Q6W5P4 | CHO-NPSR cells, cAMP TR-FRET, antagonist mode | AID 1461, 2008 | hit rate 1% among 220,000 | Potency, µM (doses to about 38.3 µM), without a hit: at the highest dose activity change, negative = inhibition, hits mostly inhibitors; note: potency is the fitted concentration of half-maximal effect; % is set by controls: 0 for no effect and ±100 for the full control effect; nearly all actives have a fitted effect of over 50% in size; many of its hits are not listed in these tables
# * hit, by the source's call; · = not tested or not shown; & = joins results of further samples; [ ] = dose if it differs, or a comment. Calls come from the whole dose curve; as a rule, active = well fitted curve in the direction sought with a large enough effect; inconclusive = small, poorly fitted or top-dose-only effect, or another doubt; inactive = no such curve, though single readings can be large; an effect the other way counts as inactive or inconclusive. A portion of the library (hit frequency here may not be typical).
SMILES,Epigenetic derep,GLA spleen mod,CBFb RUNX1 block,NPSR antag
CC(C)[N+]1(C)[C@@H]2CC[C@H]1CC(OC(=O)C(CO)c1ccccc1)C2 (stereo partly drawn),-3.9%,-6%,7%,32%
O=C1C(CCS(=O)c2ccccc2)C(=O)N(c2ccccc2)N1c1ccccc1 (stereo not drawn),18%,-9%,2%,-14%
Nc1ccn([C@H]2CS[C@@H](CO)O2)c(=O)n1,·,5%,-1%[21.7 µM],·
COC(=O)Cc1c[nH]c2cccc(OCC(O)CN(Cc3ccccc3)C(C)C)c12 (stereo not drawn),1.0%,-15%,-3%,-9%[46.1 µM]
CN(CCO)CC(O)Cn1cnc2c1c(=O)n(C)c(=O)n2C (stereo not drawn) (tested in a mixture with another compound),-3.0%,10%,9%,14%
COc1ccc2cc(C(C)C(=O)O)ccc2c1 (stereo not drawn),1.1%&1.3%,-4%&5%&7%,-1%&-4%&1%,·
CCCCC[C@H](O)/C=C/[C@@H]1[C@@H](C/C=C\CCCC(=O)O)[C@@H](O)C[C@H]1O,-1.1%&-1.0%,8%&-6%,-9%&6%,3%
CC(C)[N+]1(C)C2CCC1CC(OC(=O)C(CO)c1ccccc1)C2 (stereo not drawn),4.0%&-0.5%,-4%&2%,14%&10%,·
CCC[C@@H]1C[C@@H](C(=O)N[C@@H](C2O[C@H](SC)[C@H](O)[C@@H](O)[C@H]2O)[C@H](C)Cl)N(C)C1 (stereo partly drawn),-0.4%,1%,-9%,19%

# Exported bar-delimited: part of the list above
Structure | Epigenetic derep | GLA spleen mod | CBFb RUNX1 block | NPSR antag
O=C1C(CCS(=O)c2ccccc2)C(=O)N(c2ccccc2)N1c1ccccc1 (stereo not drawn) | 18% | -9% | 2% | -14%
Nc1ccn([C@H]2CS[C@@H](CO)O2)c(=O)n1 | · | 5% | -1%[21.7 µM] | ·
COC(=O)Cc1c[nH]c2cccc(OCC(O)CN(Cc3ccccc3)C(C)C)c12 (stereo not drawn) | 1.0% | -15% | -3% | -9%[46.1 µM]
CN(CCO)CC(O)Cn1cnc2c1c(=O)n(C)c(=O)n2C (stereo not drawn) (tested in a mixture with another compound) | -3.0% | 10% | 9% | 14%
COc1ccc2cc(C(C)C(=O)O)ccc2c1 (stereo not drawn) | 1.1%&1.3% | -4%&5%&7% | -1%&-4%&1% | ·
CCCCC[C@H](O)/C=C/[C@@H]1[C@@H](C/C=C\CCCC(=O)O)[C@@H](O)C[C@H]1O | -1.1%&-1.0% | 8%&-6% | -9%&6% | 3%
CC(C)[N+]1(C)C2CCC1CC(OC(=O)C(CO)c1ccccc1)C2 (stereo not drawn) | 4.0%&-0.5% | -4%&2% | 14%&10% | ·
